PABP polyA inh: blocks human PABP binding to poly(A) RNA; P11940; fluorescence polarization; inhibition, % at 35 µM; hit rate 1% among 290,000;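 active means 50% or more with normal probe brightness, or confirmed in later tests; inconclusive means above 50% with abnormal brightness, or retests that disagree; inactive means below 50% or failed in later tests; about a fifth of its hits are not listed in these tables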;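 further: calls also rest on retests at 20 µM and on dose response follow-up; controls were probe without protein and protein plus probe with vehicle; some compounds called inactive have numbers as strong as hits; many hits fall short of the cut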
Target sequence (P11940 whole entry, looked up): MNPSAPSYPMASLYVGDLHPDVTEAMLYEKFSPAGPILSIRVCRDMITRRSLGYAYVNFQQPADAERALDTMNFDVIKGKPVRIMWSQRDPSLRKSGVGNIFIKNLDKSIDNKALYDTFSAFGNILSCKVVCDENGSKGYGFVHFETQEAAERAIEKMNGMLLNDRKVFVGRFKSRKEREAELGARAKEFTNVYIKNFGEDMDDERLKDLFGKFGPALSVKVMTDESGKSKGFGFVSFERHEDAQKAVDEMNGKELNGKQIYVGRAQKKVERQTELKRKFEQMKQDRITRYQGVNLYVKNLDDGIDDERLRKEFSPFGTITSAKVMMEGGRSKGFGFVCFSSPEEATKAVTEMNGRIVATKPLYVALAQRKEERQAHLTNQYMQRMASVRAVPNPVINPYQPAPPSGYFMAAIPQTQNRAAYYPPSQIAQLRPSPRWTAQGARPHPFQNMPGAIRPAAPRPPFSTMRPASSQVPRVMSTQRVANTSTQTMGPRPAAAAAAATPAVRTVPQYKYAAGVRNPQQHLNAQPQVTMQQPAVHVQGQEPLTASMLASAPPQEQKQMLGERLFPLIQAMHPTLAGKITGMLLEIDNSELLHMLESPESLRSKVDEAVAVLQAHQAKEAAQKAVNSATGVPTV
Yeast UUG start: modulators of start codon recognition fidelity in yeast | S. cerevisiae UUG-firefly luciferase reporter, luminescence/redox ratio | hit rate 0.13% among 350,000 | activity score, % at 18.7 µM | AID 602363;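 active means replicate mean at a twofold rise or more, about +100% in these data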;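 further: firefly luciferase made from a UUG start codon reports start codon fidelity; reporter light over untreated wells divided by growth signal over untreated wells; some hits fall short of that in this replicate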
Rce1 inh: yeast Ras-converting enzyme inhibition. hit rate 0.27% among 290,000. yeast membranes, quenched prenylated peptide cleavage fluorescence. Q03530. calls only;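 active means fall in fluorescence gain of 50% or more versus controls, with final raw signal at or below 3038400; inconclusive means same 50% fall but final raw signal above 3038400; inactive means fall in fluorescence gain under 50%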;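 further: plate controls were neutral control wells for no effect and wells lacking membranes for full effect; tested at 10 µM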
MT1-MMP act inh: MT1-MMP (human) activation inhibition. P50281. HT1080 RFP-PRO-GFP cells, GFP/RFP ratio fluorescence, overnight; percent of plate control window, DMSO zero. GFP/RFP ratio change, % at 20 µM. hit rate 0.061% among 360,000. AID 651647;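 active means GFP/RFP ratio change of at least 30% with cell ATP level not reduced by more than half and red fluorescence within 50% of control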; further: strong numbers were not always called active
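Read-out: GFP/RFP fluorescence ratio; Test system: RFP-PRO-GFP reporter HT1080 cells; Compound dosing: single-point 20 µM compound, 1% DMSO; Times: overnight compound exposure at 37 °C.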
eIF4H inh: inhibitors of RNA binding by human eIF4H; eIF4H fluorescence polarization binding assay; inhibition, % at 35 µM; hit rate 0.94% among 290,000; Q15056; AID 2012;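 active means 50% or more with normal probe brightness, or confirmed in later tests; inconclusive means above 50% with abnormal brightness, or retests that disagree; inactive means below 50% or failed in later tests; about a fifth of its hits are not listed in these tables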;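 further: calls also rest on retests at 20 µM and on dose response follow-up; 0% = protein and probe with vehicle and 100% = probe without protein; strong numbers were not always called active; many hits fall short of the cut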
CSC inhib: blocks cancer stem cells; cancer stem cell-like cells viability, luminescence; inhibition, % at 7.5 µM; hit rate 1.1% among 300,000; AID 2717;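 active means mean at 75% or more and at least half the replicates too; inconclusive means mean and replicates disagree; tested in HMLE shEcad cells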;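 further: 0% = median of negative and 100% = median of positive control wells; the first replicate is given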
HIV Env fusion: HIV envelope-mediated fusion inhibition; HeLa-JRFL Env/CEM21 cell fusion, luciferase; inhibition, % at 12.3 µM; hit rate 1.1% among 360,000; AID 651610;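 active means mean replicate inhibition score of at least 50 and every replicate individually at or above 50; inconclusive means only one of the two criteria met; inactive means mean below 50 and not all replicates reaching 50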;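 further: 0% = plate neutral controls and 100% = maraviroc near 300 nM; one replicate is shown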
MT1-MMP act inh RFP: also measured in MT1-MMP act inh; calls as there; RFP signal change, %; measured here: RFP expression control read;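 0 = vehicle wells; hits needed this value within 50% of zero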
Numbers without * were called inactive; i = inactive; ? = inconclusive; · = no result given; & = joins results of further samples; [ ] = dose if it differs, or a comment. Compounds were not picked by outcome (roughly 2.9% active in at least one column).

A first look, 3 compounds:
# | Structure | PABP polyA inh | Yeast UUG start | Rce1 inh | MT1-MMP act inh | MT1-MMP act inh RFP | eIF4H inh | CSC inhib | HIV Env fusion
1 | Cc1cnc(NC(=O)CCN2C(=O)C3CCCCC3C2=O)s1 (stereo unspecified) | 1 | · | i | 0 | 4 | -6 | 11 | 11
2 | COCc1cc(Sc2ccc(Cl)cc2Cl)nc(-c2ccccc2)n1 | 1 | -8 | i | -1 | -1 | -4 | 30 | ·
3 | COc1ccccc1C1CC(c2ccccc2)=NN1C(=O)c1ccccc1 (stereo unspecified) | 7 | -32 | i | -8 | 1 | -6 | 3 | -95

The listing, repeating the preview:
# | Structure | PABP polyA inh | Yeast UUG start | Rce1 inh | MT1-MMP act inh | MT1-MMP act inh RFP | eIF4H inh | CSC inhib | HIV Env fusion
1 | Cc1cnc(NC(=O)CCN2C(=O)C3CCCCC3C2=O)s1 (stereo unspecified) | 1 | · | i | 0 | 4 | -6 | 11 | 11
2 | COCc1cc(Sc2ccc(Cl)cc2Cl)nc(-c2ccccc2)n1 | 1 | -8 | i | -1 | -1 | -4 | 30 | ·
3 | COc1ccccc1C1CC(c2ccccc2)=NN1C(=O)c1ccccc1 (stereo unspecified) | 7 | -32 | i | -8 | 1 | -6 | 3 | -95
4 | CCn1cc(C(=O)NCCCOC(C)C)c2cc(OC)c(OC)cc2c1=O | -2 | 8 | i | 5 | 2 | -5 | · | ·
5 | C=CC[n+]1cccc(-c2cc3ccc(C)cc3[nH]2)c1 | 11 | 11 | i | -2 | -3 | 7 | 3 | -5
6 | Cc1c(CCC(=O)N2CCC(C(=O)NCCCCCC(=O)O)CC2)c(=O)oc2cc3oc4c(c3cc12)CCCC4 | 11 | -11 | i | 2 | -2 | -1 | -3 | 6
7 | O=C(CCc1c[nH]c2ccccc12)N1CCCCCCC1 | -3 | -1 | i | -3 | -4 | 4 | 16 | -5
8 | C/C(=N\NC(=O)c1cccc(S(=O)(=O)N2CCOCC2)c1)c1ccc(OCC(=O)N(C)C)cc1 | · | · | i | 0 | 2 | · | -10 | -31
9 | COc1cccc(C(=O)O[C@@H]2[C@H](Cc3ccccc3)NS(=O)(=O)[C@H]3C[C@@H]4C=C[C@]23O4)c1 | · | -2 | · | -2 | -2 | · | -10 | -12
10 | O=C(NN1C(=O)C2C(C1=O)C1C=CC2C12CC2)c1cccc(Cl)c1 (stereo unspecified) | 6 | · | i | 2 | 0 | -7 | -2 | -7
11 | O=c1oc2c(Cl)cc(Cl)cc2cc1-c1nnc(Nc2ccccc2F)s1 | 6 | · | i | · | · | 5 | -20 | ·
12 | Cc1ccc2nc(SCC(=O)N3CCN(c4ccccc4)CC3)nc(=O)n2c1 | · | -1 | i | 11 | -6 | · | 2 | -15
13 | Cc1ccc(S(=O)(=O)NNC(=O)c2ccc3ccccc3n2)cc1 | -1 | 1 | i | -1 | 1 | -10 | -5 | 4
14 | COc1ccc(/C=N/Nc2nc(-c3ccc(C)cc3)c(NC(C)=O)s2)cc1 | -9 | -26 | i | -1 | 1 | 4 | -5 | -4
15 | Cc1ccc(C(=O)C(OC(=O)CNS(=O)(=O)c2ccccc2)c2ccccc2)cc1 (stereo unspecified) | -2 | -15 | i | -3 | 2 | -3 | -5 | 6
16 | Nc1nc2cc(Cl)c(Br)cc2o1 | · | -22 | · | 2 | 5 | · | · | -128
17 | O=C(CSc1nc2ccc(Cl)cc2o1)NCc1ccc2c(c1)OCO2 | -11 | -8 | i | 5 | -3 | -5 | 9 | ·
18 | CCn1c(SCC(=O)Nc2ccc3c(c2)c2ccccc2n3CC)nnc1-c1ccco1 | -2 | -3 | i | -5 | 3 | -2 | -3 | 16
19 | O=C(CSC1CC(=O)N(CCc2ccccc2)C1=O)Nc1ccc(Cl)cc1 (stereo unspecified) | 4 | -21 | i | 5 | 2 | -4 | -22 | 6
20 | Cc1cccc(NC(=O)CSc2nc3ccccc3nc2N2CC(C)OC(C)C2)c1 (stereo unspecified) | 0 | -6 | i | -3 | -9 | -8 | 7 | ·
21 | COc1ccc(N2CCN(C(=O)c3cccc(N4C(=O)C5CC=CC(C)C5C4=O)c3)CC2)cc1 (stereo unspecified) | 4 | -10 | · | 0 | 3 | 4 | -2 | ·
22 | O=C(Nc1ccc(C2=NCCN2)cc1)c1ccc(C(=O)Nc2ccc(C3=NCCN3)cc2)c(Cl)c1 | 40 | 7 | i | 1 | 0 | 17 | -19 | -11
23 | CC(C)=CC(=O)OCC(=O)Nc1ccccc1Cl | -6 | -2 | i | 0 | -2 | -7 | -15 | ·
24 | COc1cccc(C2CC(c3cccc(Br)c3)n3ncnc3N2)c1 (stereo unspecified) | -21 | -26 | i | 1 | -6 | 0 | · | -12
25 | COc1ccc(NC(=O)CSc2nc(C3CC3)nc3ccccc23)c(OC)c1 | -4 | -6 | i | -7 | -6 | -20 | -18 | 9
26 | O=C(O)CNS(=O)(=O)c1ccc(F)cc1 | 7 | -26 | i | -2 | 4 | 4 | 8 | -68
27 | CC(C)(C)NC(=O)C(c1c[nH]c2ccccc12)N(C(=O)Cn1nnc(-c2ccc(F)cc2)n1)c1cccc(O)c1 (stereo unspecified) | 11 | · | i | -4 | -13 | -11 | 35 | -28
28 | N#CC1=C(N)Oc2ccc3ccc(O)cc3c2C1c1ccsc1 (stereo unspecified) | 8 | · | i | 13 | 69 | ? | · | 0
29 | Cc1nn(Cc2c(F)c(F)c(F)c(F)c2F)c(C)c1NC(=O)c1nn(C)cc1Br | 1 | -10 | i | 1 | 1 | -9 | 6 | 5
30 | Cc1ccc2nc(-c3cccc(Br)c3)c(Cc3cccc(Cl)c3)n2c1 | · | -2 | · | -2 | -1 | · | · | -21
31 | COc1ccc(C(=O)N[C@H](C(=O)Nc2nc3ccccc3[nH]2)C(C)C)cc1 | -9 | -32 | i | -2 | -15 | -2 | 41 | i
32 | CCCCn1nc2cc(C(=O)NCC34CC5CC(CC(C5)C3)C4)ccc2c1OCC | -10 | -14 | i | 2 | -7 | 2 | -10 | -28
33 | COc1ccc(-c2cccc(C(=O)Nc3ccccc3C)c2)cc1 | 20 | 4 | i | 3 | 5 | -1 | 2 | 7
34 | COC(=O)C1=C(NC(=O)C(C)(C)C)CCS1 | 15 | · | i | 1 | 2 | 11 | -14 | ·
35 | C[C@@H]1CN([C@@H](C)CO)S(=O)(=O)c2ccc(Br)cc2O[C@@H]1CN(C)C(=O)NC1CCCCC1 | · | -15&-4 | · | 1 | 3 | · | · | -15
36 | CCCN1C2CCCC1CC(NC(=O)Nc1ccc(C(C)C)cc1)C2 (stereo unspecified) | -11 | -10 | · | 0 | 1 | 9 | 0 | -23
37 | CC(C)n1c(SCC(N)=O)nc2c1c(=O)n(C)c(=O)n2C | 3 | -32 | i | 4 | 4 | 5 | 1 | ·
38 | CCC(Sc1nnc(C)c(=O)[nH]1)C(=O)Nc1cccc2ccccc12 (stereo unspecified) | 1 | -13 | i | 2 | 3 | -6 | -1 | -6
39 | CC1CCN(CC(=O)Nc2ccccc2C(=O)NC2CC2)CC1 | · | -9 | · | -3 | 2 | · | -9 | -6
40 | Cc1nn(C)c(C(=O)NNC(=S)NC2CCCCC2)c1Cl | -1 | · | i | 3 | 0 | -2 | -20 | 18
41 | CCCCN(C(=O)C1CCCC1)c1c(N)n(Cc2ccccc2)c(=O)[nH]c1=O | · | 2 | · | -1 | 1 | · | 14 | -11
42 | COc1cccc(-c2cnc3c(NC=O)cc(-c4ccccc4)cn23)c1 | · | -2 | · | -7 | -10 | · | · | -186
43 | CCc1ccc(N2CC(C(=O)OCC(=O)Nc3ccc([N+](=O)[O-])cc3)CC2=O)cc1 (stereo unspecified) | · | -2 | · | -1 | 2 | · | -15 | ·
44 | O=C(O)COc1ccc(S(=O)(=O)c2ccc(OCC(=O)O)cc2)cc1 | 17 | -21 | i | 5 | 0 | -3 | -1 | -48
45 | CC1(Cc2ccccc2Cl)C(=O)Nc2cc(-c3ccccc3Cl)ccc21 (stereo unspecified) | · | 3 | · | -15 | -14 | · | · | -3
46 | S=C1Cc2ccccc2N1 | -10 | -24 | i | -7 | -32 | 3 | · | 73*
47 | Clc1ccc(C2CC(c3cccs3)n3ncnc3N2)c(Cl)c1 (stereo unspecified) | -7 | -19 | i | -1 | -3 | -2 | -1 | 6
48 | COC(=O)CN1C(CN2CCOCC2)=Nc2ccc(Br)cc2C1c1ccccc1 (stereo unspecified) | 4 | -15 | i | -3 | -5 | -3 | -6 | 4
49 | COc1cc(/C=C/c2ccc3cccc(O)c3n2)c(Br)cc1O | -6 | -6 | i | -19 | -3 | 10 | 96* | -15
50 | Cn1c(Cn2c(=O)sc3ccccc32)nnc1SCC(=O)Nc1ccc(Cl)cc1 | 6 | 8 | · | -3 | 2 | -5 | -20 | 8
51 | COc1ccc(-n2c(SCC(=O)N3CCCCC3C)nnc2-c2cccnc2)cc1 (stereo unspecified) | 23 | -12 | i | 6 | 10 | 13 | · | -92
52 | CC(Oc1cccc(Cl)c1)C(=O)Nc1cc(S(=O)(=O)N2CCOCC2)ccc1N1CCCC1 (stereo unspecified) | · | 10 | i | -6 | -2 | · | 0 | 10
53 | CCc1cc2c(=O)c(-c3ccc4c(c3)OCO4)coc2c(CN(C)C)c1O | -4 | -5 | i | -2 | -3 | -10 | 0 | 12
54 | CCNc1nc(NCC)n2c(SCC(=O)Nc3cc(Cl)ccc3OC)nnc2n1 | · | -4 | i | 0 | -2 | · | -17 | 13
55 | Cc1oc2cc(O)cc(C)c2c(=O)c1-c1cnn(-c2ccccc2)c1 | 14 | -42 | i | -4 | -10 | 0 | 28 | ·
56 | C=CCN1CCN(c2ccncc2S(=O)(=O)N2CCCCC2)CC1 | 0 | -13 | · | -9 | -2 | 2 | -5 | 0
57 | O=C(OCC(=O)N1CCOCC1)c1ccc(Cl)c(S(=O)(=O)N2CCc3ccccc32)c1 | · | · | · | -3 | -14 | · | -13 | 11
58 | COc1ccc(Nc2nc(C)nc3c2oc2ccccc23)c(OC)c1 | -2 | -6 | i | 1 | -5 | -2 | 17 | 3
59 | COC(=O)c1ccc(N=Cc2c(-c3ccccc3)[nH][nH]c2=O)cc1 | 4 | · | i | -1 | 3 | 8 | -1 | 9
60 | CCc1sc(C(C2C(=O)CC(C)(C)CC2=O)C2C(=O)CC(C)(C)CC2=O)cc1[N+](=O)[O-] | 20 | · | · | 1 | 3 | 0 | 4 | 26

Continuation:
# | Structure | PABP polyA inh | Yeast UUG start | Rce1 inh | MT1-MMP act inh | MT1-MMP act inh RFP | eIF4H inh | CSC inhib | HIV Env fusion
61 | Cc1ccc(NC(=O)COC(=O)c2cc(Cl)ccc2Cl)c(Br)c1 | -6 | · | i | -2 | -2 | -2 | 35 | -3
62 | CCCC(=O)Nc1nnc(SCC(=O)Nc2ccc(OCC)cc2)s1 | · | -8 | · | 1 | 4 | · | · | 0
63 | Cc1cc(NC(=O)CSc2nnc(CNC(=O)c3ccc(F)cc3)o2)no1 | 1 | -16 | i | -3 | 0 | -4 | 4 | 12
64 | CCOc1ccc(S(=O)(=O)NCc2ccc(C)cc2)c2cccnc12 | 7 | 9 | i | 1 | 2 | 2 | -15 | ·
65 | O=C(C[C@H]1C=C[C@H](NC(=O)Nc2ccccc2F)[C@@H](CO)O1)NCc1ccc(-c2ccccc2)cc1 | · | -3 | · | 0 | 3 | · | · | -16[16.7 µM]
66 | CC(=O)NC1C(Oc2ccc(C)cc2)OC2COC(c3ccco3)OC2C1O (stereo unspecified) | -7 | · | i | 13 | 8 | -4 | -1 | ·
67 | Cc1c(OCC(=O)N2CCC(C(=O)NCCCC(=O)O)CC2)ccc2c1oc(=O)c1ccccc12 | 6 | -4 | i | -1 | 4 | -8 | -10 | 4
